# BmaI1 enzyme: BmaI1 acyl-homoserine lactone synthase inhibition – biochemical, fluorescence intensity, with counterscreen (AID 720554). BmaI1 enzyme assay, fluorescence intensity; active compounds read high; test concentration not given here; a few actives read low; strong numbers were not always called active. inhibition, %. hit rate 0.4% among 12,000;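 active means both replicates within 2 robust z-scores of the inhibited control and a quiet counterscreen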;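 further: 0% = uninhibited enzyme and 100% = inhibited control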
# BmaI1 enzyme counterscreen: recorded beside BmaI1 enzyme, whose call it bears; inhibition, %; measured here: counterscreen; design of the counterscreen not given here;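 first of two replicates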
# * marks the source's active call; other numbers are inactive results. A portion of the library, so the mix of outcomes need not match the whole.
SMILES	BmaI1 enzyme	BmaI1 enzyme counterscreen
CSc1cccc(N2CC(C(=O)N3CCN(S(=O)(=O)Cc4ccccc4)CC3)CC2=O)c1 (configuration not stated)	4.5	4.0
CN(C)Cc1ccccc1CNC(=O)CCC1CCCC1	-11.5	-11.5
O=C(NCc1ccccc1)c1cccc(S(=O)(=O)N2CCN(c3ccccc3)CC2)c1	8.5	4.0
CCn1c(SCc2ccc(C#N)cc2)nnc1-c1ccco1	5.0	4.0
CN(CC(=O)Nc1ccc(OC(F)(F)F)cc1)C(=O)C1CC(=O)N(C2CCCC2)C1 (configuration not stated)	16.0	-1.0
CCN=c1scc(-c2ccc(O)c(C(N)=O)c2)n1/N=C/c1ccc2c(c1)OCCO2	56.0	91.0
CC(=O)Nc1ccc(CNCCc2nnc3ccccn23)cc1	23.5	6.0
Cc1ccc2c(COC(=O)C3CSC4(C)CCC(=O)N34)cc(=O)oc2c1C (configuration not stated)	15.0	9.0
Cc1ccc(C(=O)NCC(=O)OC2CCCCC2=O)cc1C (configuration not stated)	12.0	-3.0
CC1CCCC(NC(=O)COC(=O)COc2ccccc2C#N)C1C (configuration not stated)	3.0	3.5
CCOC(=O)/C(=N\Nc1ccccc1Cl)N(C)C1CCN(C)CC1	60.0	26.0
CC1Cc2ccccc2N1CC(=O)Nc1ccc(C#N)cc1 (configuration not stated)	43.0	-17.0
O=C(/C=C/c1ccccc1)Nc1ccc2c(c1)OCO2	-1.5	-2.5
COC(=O)c1cn(CC(=O)OCC(=O)Nc2ccc(F)cc2)c2ccccc12	17.5	20.0
CCc1cc2c(COC(=O)c3ccccn3)cc(=O)oc2cc1O	12.0	2.0
CCC(CC)NC(=O)c1cc(=O)[nH]c2ccccc12	13.0	10.0
COc1ccc(C(=O)CSc2nc3c(cc2C#N)CCCC3)cc1	13.5	17.5
CC1CCC2(CC1)NC(=O)N(NC(=O)CN1c3cccc4cccc(c34)S1(=O)=O)C2=O (configuration not stated)	20.5	5.5
Cc1cnc(-c2oc3ccc(Br)cc3c(=O)c2C)cn1	13.5	13.0
Cc1onc(-c2ccccc2Cl)c1C(=O)N=C1N=C2C=CC=CN2Cc2ccccc21	5.5	-2.0
[O-][n+]1ccccc1Oc1ncnc2sc3c(c12)CCCC3	0.0	-2.0
O=C(COc1ccc(Cl)cc1)n1nnc2ccccc21	-4.5	1.0
O=C(CN(Cc1ccco1)C(=O)Cc1ccccc1F)Nc1ccccc1C(F)(F)F	-9.0	0.5
Cn1c(NCCN(CCO)CCCc2ccc([N+](=O)[O-])cc2)cc(=O)n(C)c1=O	-4.0	-1.5
N#CCCn1c(SCc2cc3ccccc3nc2Cl)nc2ccccc21	7.5	2.0
Clc1ccccc1C(c1ccccc1)(c1ccccc1)n1ccnc1	0.0	6.5
CCn1c(O)c(C=Nc2ccc(C)cc2)c(=O)n(CC)c1=S	16.0	6.5
CCOC(=O)C1=C(C)NC(C)=C(C(=O)OCC)C1C(=O)OCC(=O)NCc1ccccc1OC	2.5	0.0
CCn1nnc2cc(C(=O)OCC(=O)Nc3cc(OC)cc(OC)c3)ccc21	8.5	5.5
COC(=O)c1ccc(CSc2cc(C)c3ccccc3n2)o1	21.5	18.5
CCC1(C)NC(=O)N(Nc2ncnc3sc4c(c23)CCC4)C1=O (configuration not stated)	28.5	10.0
O=C(Oc1ccccc1Cl)C1=CC=CN2CCS(=O)(=O)N=C12	5.0	2.5
CN(C)S(=O)(=O)c1ccc(C(=O)OCC(=O)c2cn(CCC#N)c3ccccc23)cc1	9.0	-1.5
CCOC(=O)c1sc(N)c(C#N)c1CSc1nnc2ccccn12	6.0	6.5
Cc1ccc(N)c(C(NCC(=O)NN)c2ccccc2)c1 (configuration not stated)	-96.0	-68.5
C=CCn1cnnc1SCC(=O)c1cc(C)n(CC(F)(F)F)c1C	7.0	4.5
O=S(=O)(c1ccc(O)cc1)c1ccc(Cl)cc1	16.5	18.0
CCC(C)N(C(=O)CSc1ccc2c(c1)OCCO2)C1CCS(=O)(=O)C1 (configuration not stated)	12.5	14.5
O=C(N/N=C1/C(=O)c2cccc3cccc1c23)c1ccc(O)cc1	15.5	9.0
N#CCn1c(CSc2ncnc3sccc23)nc2ccccc2c1=O	10.0	7.5
Cc1ccc(/C=C/C(=O)OCC(=O)Nc2ccc3c(c2)CCC3)o1	14.5	-12.0
Cc1ccc(NC(=O)C(C)N(C)Cc2ccccc2)cc1 (configuration not stated)	10.0	16.5
C=CCn1c(-c2ccncc2)nn(CN(C)CCc2ccc(OC)c(OC)c2)c1=S	52.0	45.0
O=C(Cc1cccs1)NCC1(N2CCCCC2)CCCCC1	9.5	-5.0
CCN(CC)S(=O)(=O)c1ccc2c(c1)nc(SC1CCOC1=O)n2CC (configuration not stated)	30.0	-15.5
COCCOC(=O)c1c(NC(=O)COC(=O)[C@@H]2CCCN2S(C)(=O)=O)sc(C(N)=O)c1C	7.0	5.5
C=CCN(CC=C)C(=S)Nc1ccc(S(=O)(=O)N2CCOCC2)cc1	-13.5	-1.5
O=C(Nc1nnc(C2CC2)s1)C1Cc2ccccc2CN1S(=O)(=O)c1ccccc1F (configuration not stated)	8.5	2.0

# (further entries)
smiles | BmaI1 enzyme | BmaI1 enzyme counterscreen
Cc1cccc(OCCCC(=O)N2CCN(S(=O)(=O)c3ccc4c(c3)OCCO4)CC2)c1 | 15.0 | 6.0
Cc1ccc(C)c(OCC(=O)N(Cc2nnc(-c3ccc(Cl)cc3)o2)C2CC2)c1 | -11.0 | 4.5
O=C(OCN1C(=O)c2ccccc2C1=O)c1ccc2ncsc2c1 | 15.5 | -7.5
Cc1cc(C)c(C(=O)COc2ccc(-c3nnco3)cc2)cc1C | 12.5 | 8.0
O=C(NCc1ccc2c(c1)OCO2)c1ccccn1 | -9.5 | -9.0
O=C(O)CCS(=O)(=O)N1CCOCC1 | 32.0 | 7.5
Cn1c(=O)c2ccccc2n2c(COC(=O)c3cc4c(s3)-c3ccccc3CC4)nnc12 | 19.5 | 9.5
CCN(CC)C(=S)SCc1nc2ccccc2c(=O)[nH]1 | 51.5 | -3.5

# Some of the entries above in another layout:
> CCOC(=O)C1=C(C)NC(C)=C(C(=O)OCC)C1C(=O)OCC(=O)NCc1ccccc1OC
- BmaI1 enzyme: 2.5
- BmaI1 enzyme counterscreen: 0.0
> CCn1nnc2cc(C(=O)OCC(=O)Nc3cc(OC)cc(OC)c3)ccc21
- BmaI1 enzyme: 8.5
- BmaI1 enzyme counterscreen: 5.5

# Continued:
smiles | BmaI1 enzyme | BmaI1 enzyme counterscreen
O=C1CC2(CCCCC2)C(=O)N1Cc1ccc(Cl)cc1 | 16.0 | 7.5
Cc1cc(-n2c(C)cc(C(=O)COC(=O)C34CCC(=O)N3c3ccccc3S4)c2C)no1 (configuration not stated) | 2.0 | 1.5
O=C(OCC(=O)N1CCCC1=O)c1ccc2ncsc2c1 | 26.0 | 2.5
O=C(CN1C(=O)c2ccccc2C1=O)OCc1cc(=O)n2cc(Br)ccc2n1 | -4.0 | -8.0
COC(=O)c1cn(CC(=O)OCC(=O)Nc2ccc(N3CCOCC3)cc2)c2ccccc12 | 12.5 | -3.0
O=C(O)CCc1nc2ccccc2c(=O)n1-c1ccc(F)cc1 | 10.5 | 10.0
Cn1c(=S)[nH]c2cc(C(=O)NC3CCCCCC3)ccc2c1=O | -3.0 | 3.0
CN1C(C(=O)Nc2ccccn2)=C(O)c2ccccc2S1(=O)=O | 5.5 | -2.0
O=c1oc2ccccc2n1CN1CC=C(c2ccccc2)CC1 | 1.0 | 3.0
CN1CCC(N(C)C(=O)c2cc(=O)c3ccccc3o2)CC1 | 3.5 | 0.5
CC1CCC(C(C)C)C(OC(=O)CSc2nnc(N)s2)C1 (configuration not stated) | 27.0 | 17.5
COc1ccccc1NC(=O)O/N=C(\N)c1ccccc1 | 31.0 | 9.0
COc1ccc(N2CCN(C(=O)/C=C/c3ccccc3)CC2)cc1 | 51.0 | -21.0
CCOc1cc(N2CCOCC2)c(OCC)cc1NC(=O)c1c(C)nn(-c2ccccc2)c1C | 9.0 | -3.5
O=c1c2ccccc2nnn1CSc1nc2ccccc2c(=O)n1CC1CCCO1 (configuration not stated) | 4.5 | -3.0
Cc1ccc2nc(CSc3nnc4ccccn34)cc(=O)n2c1 | -11.0 | -13.5

# Some of these compounds in order of SMILES length, highest first:
smiles | BmaI1 enzyme | BmaI1 enzyme counterscreen
CCOc1cc(N2CCOCC2)c(OCC)cc1NC(=O)c1c(C)nn(-c2ccccc2)c1C | 9.0 | -3.5
O=C(Nc1nnc(C2CC2)s1)C1Cc2ccccc2CN1S(=O)(=O)c1ccccc1F (configuration not stated) | 8.5 | 2.0
Cc1ccc2nc(CSc3nnc4ccccn34)cc(=O)n2c1 | -11.0 | -13.5
O=C(/C=C/c1ccccc1)Nc1ccc2c(c1)OCO2 | -1.5 | -2.5

# The list goes on.
smiles | BmaI1 enzyme | BmaI1 enzyme counterscreen
Cc1ccc(C)c(OCc2nnc(SCc3nc4ccccc4s3)o2)c1 | 33.0 | 15.0
Cc1cc2nc(C)c(CCC(=O)N3CCN(Cc4ccc(C(C)C)cc4)CC3)c(C)n2n1 | 11.5 | -2.0
CCCN(CCC)C(=O)c1cc2sc3ccccc3c2s1 | 19.0 | 14.5
Cc1cc(NC(=O)CN2CCN(S(=O)(=O)c3ccc(Cl)cc3)CC2)no1 | 11.5 | 6.5
O=C(c1c(NS(=O)(=O)c2ccc3c(c2)OCCO3)sc2c1CCCC2)N1CCOCC1 | 16.0 | -1.0
CCN(CC)c1ccc(C=Nc2ccc(S(=O)(=O)N3CCCC3)cc2)c(O)c1 | 12.5 | 1.5
C=CCSc1nc2ccccc2n1Cc1cc(C(=O)OC)c(C)o1 | 11.5 | -4.0
CC(C)CC(=O)Nc1ccc(-c2csc(CC#N)n2)cc1 | 2.5 | -4.0
Cc1nc(-c2cccc(NC(=O)CN3CCCC3c3cccs3)c2)cs1 (configuration not stated) | -1.0 | -4.0
COC(=O)Nc1nc2ccc(C(=O)c3ccc(F)cc3)cc2[nH]1 | -9.5 | -7.0
CS(=O)(=O)N1CCCc2cc(C(=O)Cn3cc(C(F)(F)F)ccc3=O)ccc21 | 13.0 | 4.0
Cc1cc(NNS(=O)(=O)c2ccc(CCC(=O)O)cc2)n2ncnc2n1 | 85.0 | 26.5
CC(C)NC(=O)CSc1nnc(-c2cccs2)n1C | 5.0 | 5.0
O=C(OCC(=O)N(C1CCCCC1)C1CCCCC1)c1ccc(N2CCCC2=O)cc1 | 9.5 | 8.0
Cc1ccn2c(N)c(-c3ccccc3)nc2c1 | 63.5 | -3.5
COc1ccc(S(=O)(=O)N(CCC(=O)O)Cc2ccccc2)cc1 | 7.5 | 1.5
Cc1ccc(NP(C)(=O)c2nc3c(s2)CCCC3)cc1 (configuration not stated) | 71.5 | 103.5
CCCCNC1=NCCS1 | -3.0 | 0.5
CC(C)(S)C(N)C(=O)O (configuration not stated) | 3.0 | 14.5
COc1cc(NC(=O)CCC2CCCC2)c(C(=O)N2CCN(C(C)=O)CC2)cc1OC | 11.0 | 5.0
CCc1ccccc1Oc1ncccn1 | -6.5 | -1.0
C/C(=N\NC(=O)C(C)C)c1cc(C)c(C)cc1C | -4.0 | 1.0
Cc1cccc(NC(=O)CSc2nc3cc(S(=O)(=O)N(C)C)ccc3o2)c1 | 4.5 | 6.5
Fc1ccc(/C=N/N2CCOCC2)cc1 | -2.5 | -1.0
CCOC(=O)c1c2nc3ccccc3nc2n2c1[nH]c(=O)c1c3c(sc12)CCCC3 | 4.5 | -0.5
O=C(NCCc1ccc(Cl)cc1)C1CCN(S(=O)(=O)c2ccc3c(c2)OCCO3)CC1 | 12.0 | 9.5
O=C(CSc1nnc(-c2ccc3c(c2)OCO3)o1)NC(=O)NC1CCS(=O)(=O)C1 (configuration not stated) | 16.5 | 8.5
CC(C)C(C)(C#N)NC(=O)CN1CCN(c2cccc(Cl)c2)CC1 (configuration not stated) | 11.0 | 2.0
CC1CN(C(=O)CNC(=O)COc2ccccc2)CC(C)O1 (configuration not stated) | 15.0 | 16.5
COc1ccccc1Oc1cc(C)nc2ncnn12 | 3.5 | 1.0
Cn1c(SCc2cnc(-c3ccccc3)s2)nnc1C1COc2ccccc2O1 (configuration not stated) | 9.0 | 1.5
CSc1ccc2c(c1)N(CCC1CCCCN1C)c1ccccc1S2 (configuration not stated) | -12.0 | -15.0
CCCCS(=O)(=O)NN1C(=O)NC(C)(c2ccccc2)C1=O (configuration not stated) | 0.5 | 8.5
O=C(Oc1ccc2c(c1)OCO2)c1ccc(S(=O)(=O)C(F)F)cc1 | 2.5 | -1.0
c1ccc(-c2ncc(CSc3nnc(-c4cccs4)n3CC3CCCO3)s2)cc1 (configuration not stated) | 16.0 | 18.0
NCCCOCc1ccccc1 | 12.5 | -1.5
CCN(CC(=O)Nc1cc(Cl)ccc1C)CC(=O)NC1CC1 | 11.5 | 13.0
CC(=O)Nc1ccc2c(COC(=O)C3CC3C)cc(=O)oc2c1 (configuration not stated) | 21.0 | 9.5
O=C(O)/C=C/c1ccc(OC(F)(F)F)cc1 | 16.0 | 12.0
Cc1ccc(N2C(=O)CC(C(=O)Nc3cccc(-n4cnnn4)c3)C2c2cccs2)cc1 (configuration not stated) | -1.0 | -6.0
CN(C)CCNc1ncnc2sc(-c3ccccc3)cc12 | 21.0 | 22.5
COC(=O)c1ccc(C2C(C#N)=C(C)NC(C)=C2C(=O)Nc2ccccc2)cc1 (configuration not stated) | -53.5 | -25.5
O=C(Nc1cccnc1)Nc1cccc(C(F)(F)F)c1 | 8.5 | 4.0
CCOC(=O)c1c(C)[nH]c(C(=O)OCc2nc(N)nc(Nc3ccccc3C)n2)c1C | 3.5 | -1.0
O=C(COc1cccc(-n2cnnn2)c1)NCC1CCCCC1 | 13.5 | 13.0
O=C(CO/N=C/c1ccco1)N1N=C2/C(=C/c3cccs3)CCCC2C1c1cccs1 (configuration not stated) | 12.0 | 21.5
COC(=O)c1cc(NC(=O)COc2ccc3c(c2)OCO3)cc(C(=O)OC)c1 | 10.5 | 12.0
CNCCC=C1c2ccccc2CCc2ccccc21 | 5.0 | 40.5
